# Bioassay records from PubChem.
# gsp antagonist – antagonists of gsp mutant (McCune-Albright syndrome); gsp-mutant cells, cAMP HTRF, 30 min; control for the full effect not named in the record; Potency, µM (highest dose often 76.9 µM), without a hit: at the top dose activity change, negative = inhibition, actives largely listed as inhibitors; 340,000 compounds, 0.4% hits; AID 624288; active = falling curve of any shape with a large fitted effect; inconclusive = falling curve, mostly with a smaller effect; inactive = flat or rising curve; cell line not stated here;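 further: intracellular cAMP measured with PDE inhibitor Ro 20-1724 present during compound exposure; potency means the concentration at half of the fitted maximal effect; on the % scale 0 is the no-effect control and ±100 the full control effect; nearly all actives have a fitted effect of over 65% in size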
#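 HTRF cAMP read-out (cAMP-d2 plus anti-cAMP antibody-K in lysis buffer, 30 min RT). Before lysis, cells are exposed to compounds with […] for 30 min at 37C in DPBS containing Ca/Mg, BSA and Tween 20.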
# gsp ag – activates gsp, the McCune-Albright syndrome mutation; gsp mutant cells, cAMP HTRF, 30 min; control for the full effect not named in the record; Potency, µM (highest dose often 76.9 µM), for inactives: at the highest dose activation (cAMP increase), usual class: activators; 340,000 compounds, 0.13% hits; AID 624287; active = well fitted activation curve with a large enough effect; inconclusive = small, poorly fitted or top-dose-only effect, or another doubt; inactive = no such curve, though single readings can be large or run the other way; cell line not stated here;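 further: phosphodiesterase inhibitor Ro 20-1724 added with compounds to block cAMP breakdown; potency means the concentration at half of the fitted maximal effect; nearly all actives have a fitted effect of over 60% in size; about a fifth of the inactives were tested at one dose only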
#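 Cells stably selected in G418 were plated at 2000/well, grown 16-24 hr, then given compounds in DMSO with the PDE inhibitor […] (300 uM solution added) for 30 min at 37C; cAMP was read by HTRF.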
# Sfp inh – inhibitors of Bacillus subtilis Sfp phosphopantetheinyl transferase; 310,000 compounds, 3.5% hits; Biochemical Sfp PPTase activity, qHTS; Q9F4F7; Potency, µM, for inactives: max response, negative = inhibition, hits mostly inhibitors; active means well fitted inhibition curve with a large enough effect; inconclusive means small, poorly fitted or top-dose-only effect, or another doubt; inactive means no such curve, though single readings can be large or run the other way;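 further: the enzyme is Sfp with the accession as filed and its product quenches rhodamine fluorescence; potency means the concentration at half of the fitted maximal effect; 0% = enzyme reaction without inhibitor and -100% = no enzyme wells; top concentration of the series not given in the record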
#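 Sfp 15 nM + cpd, 15 min RT; start w/ rhodamine-CoA 5 uM, BHQ-2-YbbR 12.5 uM (final); 50 mM Hepes pH 7.6, 10 mM MgCl2, 0.01% NP-40, 0.01% BSA; read 525/598 nm at 0 and 30 min.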
# Menin MLL FP FL – displaces fluorescein MLL peptide from human menin. FP activity change, % at 61.4 µM. AID 1766. 290,000 tested, under 10 active. Fluorescence polarization, fluorescein-MLL peptide displacement from menin; inconclusive = falling polarisation curve, or a change in total fluorescence; inactive = total fluorescence flat and polarisation flat or rising; no compound was filed as active; the % refers to the polarisation; negative = inhibition;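 further: % of control where 0% means no effect; inhibitors lower the polarisation; unlabelled MLL peptide was the positive control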
# ClpP mod – qHTS Assay for Activators of ClpP; AID 651965, 2013; purified B. subtilis ClpP, FRET peptide cleavage, 20 min; Potency, µM (series often up to 57.5 µM), inactives show at the top dose activity change, negative = active; 340,000 compounds, 1.9% hits; ATP-dependent Clp protease proteolytic subunit (Bacillus subtilis (strain 168)), P80244; active = well fitted falling curve with a large enough effect; inconclusive = small, poorly fitted or top-dose-only effect; inactive = no such curve, though single readings can be large or run the other way; further: potency means the concentration at half of the fitted maximal effect; the source files actives as falling curves though it sought activators and does not explain the sign; nearly all actives have a fitted effect of over 65% in size; many hits overshoot -100%
# Target sequence (P80244 whole entry, looked up): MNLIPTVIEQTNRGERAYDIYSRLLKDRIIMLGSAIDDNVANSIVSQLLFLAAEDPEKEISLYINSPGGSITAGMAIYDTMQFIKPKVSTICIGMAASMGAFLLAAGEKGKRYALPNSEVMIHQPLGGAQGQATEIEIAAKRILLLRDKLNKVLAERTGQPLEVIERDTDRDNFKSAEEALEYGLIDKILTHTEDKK
#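 FRET quenching reversal measured ClpP activation: 10 microg/mL B. subtilis ClpP at pH 8 with the FRET-FV decapeptide, read at 430 nm after 320 nm excitation. The 20-min minus 0-min signal was scaled between DMSO/no-enzyme wells and ADEP (5.8 microM final).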
# CtBP-E1A blk – inhibitors of CtBP/E1A interaction; AlphaScreen GST-E1A/His-CtBP binding, 1536-well; stronger effect = lower value; control for the full effect not named in the record; activity change, % (concentration not given with the values); 340,000 compounds, 0.49% hits; AID 651724; in the data active means activity change below about -65%; inconclusive means about -30% to -65%; inactive means above about -30%; further: on the % scale 0 is the no-effect control and ±100 the full control effect
#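 Homogeneous bead-based format: GST-tagged E1A captured on glutathione donor beads, His-tagged CtBP on nickel acceptor beads; compounds precede bead addition by 2 h at 37 °C.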
# TRPV1 PAM – human TRPV1 potentiation | potentiation, % at 8.33 µM | 320,000 compounds, 0.02% hits | Q8NER1 | AID 540277 | TRPV1-expressing cells, Fluo-8 calcium influx, capsaicin EC20 potentiation; host cell line not named in the record; control for the full effect not named in the record; active means potentiation above 80%; inconclusive means 30% to 80%; inactive means below 30%; further: 0% is about no effect
# Target sequence (Q8NER1 whole entry, looked up): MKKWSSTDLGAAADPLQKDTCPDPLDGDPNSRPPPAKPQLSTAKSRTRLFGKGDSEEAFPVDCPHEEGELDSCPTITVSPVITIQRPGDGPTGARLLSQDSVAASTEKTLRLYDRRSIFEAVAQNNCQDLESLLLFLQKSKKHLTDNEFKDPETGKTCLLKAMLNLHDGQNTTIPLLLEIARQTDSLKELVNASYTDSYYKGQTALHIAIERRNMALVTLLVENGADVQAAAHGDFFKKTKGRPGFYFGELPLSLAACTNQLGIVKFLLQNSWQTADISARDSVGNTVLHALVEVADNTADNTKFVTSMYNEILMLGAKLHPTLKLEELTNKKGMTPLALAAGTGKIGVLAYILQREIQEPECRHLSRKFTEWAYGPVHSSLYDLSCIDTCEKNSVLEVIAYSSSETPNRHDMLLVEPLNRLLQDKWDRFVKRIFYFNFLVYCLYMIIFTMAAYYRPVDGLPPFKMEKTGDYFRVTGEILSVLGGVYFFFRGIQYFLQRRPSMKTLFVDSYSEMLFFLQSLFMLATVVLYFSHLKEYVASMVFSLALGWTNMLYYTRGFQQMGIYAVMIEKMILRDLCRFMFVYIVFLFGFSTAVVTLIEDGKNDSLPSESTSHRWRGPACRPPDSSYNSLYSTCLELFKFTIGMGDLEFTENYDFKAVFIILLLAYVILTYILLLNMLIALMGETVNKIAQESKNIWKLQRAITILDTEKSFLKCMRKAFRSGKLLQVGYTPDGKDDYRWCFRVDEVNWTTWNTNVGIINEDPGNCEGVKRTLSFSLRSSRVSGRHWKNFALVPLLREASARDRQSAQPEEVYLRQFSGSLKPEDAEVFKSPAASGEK
#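 TRPV1-expressing cells were cultured overnight at 35.5C and loaded with Fluo-8 calcium dye for 40 to 90 min at room temperature. After a 10 s baseline, compound was added and calcium influx was read kinetically for 3 min (ex 480/em 520 nm).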
# Starred values were filed as active, the others as inactive; ? = inconclusive; . = no result given; & = joins results of further samples; [ ] = remark or other dose. The order is random; any-hit rate near 5.3%.
SMILES,gsp antagonist,gsp ag,Sfp inh,Menin MLL FP FL,ClpP mod,CtBP-E1A blk,TRPV1 PAM
O=C(NS(=O)(=O)Nc1ccc(Br)cn1)c1c[nH]c2ccccc12,2.7%,4.0%,28.3%,5.4,-0.5%,.,-7.0
CC(NC(=O)CN1CCN(c2ncccn2)CC1)c1ccc(F)cc1 (stereo not given),-0.2%,0.3%,8.0%,1.1,-1.3%,-1.9,4.8
O=C(c1cccc(F)c1)N1CCCN(C(=O)c2cccc(F)c2)CC1,13.4%,-1.3%[15.4 µM],5.6%,-1.7,1.0%,5.7,-2.0
COc1ccc2[nH]cc(CCNC(=O)COc3ccc4ccc(=O)oc4c3)c2c1,-13.3%,.,17.4%,-4.2,-2.5%,-1.3,6.1
CC(Sc1nnc(-c2ccccc2F)n1C1CC1)C(=O)NCc1ccco1 (stereo not given),-6.7%,15.8%,.,.,-0.9%,.,2.2
Cn1cccc1C(=O)NCCc1ccccc1,13.5%,-12.9%[15.4 µM],2.2%,2.7,.,4.1,-7.5
O=C(Nc1ccc(N2CCOCC2)cc1)c1cc2c(s1)CCCCC2,-10.1%,11.0%,6.0%,-1.0,.,-1.7,-33.8
COc1cc(C(=O)OCCCc2cc3ccccc3c(=O)o2)cc(OC)c1OC,-16.2%,7.8%,.,.,-4.4%,4.9,-9.6
CC(NC(=O)/C(C#N)=C/c1cccs1)c1ccccc1 (stereo not given),-7.0%,1.6%[15.4 µM],0.8%,-1.2,.,5.0,-13.5
O=C(COC(=O)c1cc(S(=O)(=O)N2CCOCC2)c(Cl)cc1Cl)NC1CC1,2.0%,5.5%,.,.,?,-17.3,-3.5
C/C(=N\NC(=O)c1nnn(-c2nonc2N)c1-c1cccs1)c1cccc(O)c1,3.4%,-28.1%,7.9%,-4.5,1.4%,.,6.7
Cc1ccc(Cl)cc1NC(=O)CCn1cccc1,14.6%,0.0%,8.4%,0.8,0.2%,-8.3,1.8
O=C(N/N=C/C(Cl)=C/c1ccc([N+](=O)[O-])cc1)C(=O)Nc1ccc(C(=O)O)cc1,1.8%,19.0%,?,2.0,0.2%,-98.3*,.
O=[N+]([O-])/C(C(=C(Cl)Cl)N1CCN(Cc2ccccc2)CC1)=C1\NCCN1Cc1ccc(Cl)nc1,-7.2%,3.8%[15.4 µM],15.9%,-5.3,.,.,-13.7
COc1ccc(CN(C)C(=S)Nc2ccc(OC(F)F)cc2)cc1,-0.7%,-1.4%,-0.6%,5.4,.,12.2,-12.5
CC(C)CN(C(=O)C1CSC2(C)CCC(=O)N12)c1c(N)n(Cc2ccccc2)c(=O)[nH]c1=O (stereo not given),16.0%,?,25.9%,.,0.6%,3.1,-11.7
CC1(C)CC(NC(=O)COc2ccc(Cl)cc2Cl)CC(C)(C)N1,19.8%,1.5%[15.4 µM],24.1%,-0.5,.,-8.7,18.6
CC1(C)C2CCC1(CS(=O)(=O)Nc1ccc(S(=O)(=O)N3CCCCC3)cc1)C(=O)C2 (stereo not given),-23.5%,-50.1%[inhibitor],2.2%,2.1,9.7%,1.0,-41.9
CCCS(=O)(=O)N1CCCC(C(=O)NC2CCCC(C)C2C)C1 (stereo not given),-2.3%,-3.9%,11.4%,1.4,-8.6%,3.2,-5.3
Cc1nnc(SCC(=O)Nc2sc3c(c2C(N)=O)CCC(C)C3)[nH]c1=O (stereo not given),3.7%,-17.1%,.,.,-1.1%,-5.7,5.2
CC1(C)Nc2cccc3cccc(c23)N1,-30.4%,-15.2%,.,.,.,-3.0,.
C=C(NC(=O)C(=C)NC(=O)c1csc(C2=NC3c4csc(n4)C4NC(=O)c5csc(n5)C(C(C)(O)C(C)O)NC(=O)C5CSC(=N5)/C(=C/C)NC(=O)C(C(C)O)NC(=O)c5csc(n5)C3(CC2)NC(=O)C(C)NC(=O)C(=C)NC(=O)C(=C)NC(=O)C(C(C)C)NC2C=Cc3c(C(C)O)cc(nc3C2O)C(=O)OC4C)n1)C(N)=O (stereo not given),-6.8%,18.3%,.,.,-5.2%,-11.6,.
CC(C)N(C(=O)CSc1nc2ccccc2c(=O)[nH]1)C(C)C,-24.1%,23.3%[15.4 µM],-12.8%,1.1,-15.6%,4.2,-7.8
N#Cc1ccc(C(=O)NC(=S)N2CCOCC2)cc1,5.7%,?,.,.,-1.5%,.,.
O=C(OCc1ccccc1)/C(=C/c1cccc(Br)c1)NC(=O)c1ccco1,-18.9%,-34.2%,1.0%,-1.5,-1.6%,3.8,-1.8
O=C(Cn1cnc2scc(-c3ccc(Cl)cc3)c2c1=O)N1CCOCC1,-2.8%,-87.8%[inhibitor],16.6%,3.8,-1.7%,-8.3,-7.7
COc1ccc(CCNC(=O)Nc2cccc([N+](=O)[O-])c2)cc1OC,-5.0%,-5.5%,-24.6%,1.4,0.4%,-0.4,-19.7
O=C(NC(=S)NCCOCc1ccc(Cl)cc1)c1cccnc1,5.4%,-19.2%,2.7%,1.6,-0.5%,-0.5,-4.5
FC(F)(F)c1nnc(-c2ccccc2)nc1N1CCCC1,8.1%,13.2%,23.3%,7.3,.,-3.2,-37.5
CC(C)(C)OC(=O)N1CCC(C(=O)N2CCC[C@H]2C(=O)O)CC1,4.1%,-20.6%,9.6%,-0.9,2.4%,3.2,5.2
CC(C)C(NC(=O)c1ccc(C(C)(C)C)cc1)C(=O)Nc1cccc(S(N)(=O)=O)c1 (stereo not given),-3.0%,8.6%[15.4 µM],9.7%,-0.3,-1.4%,5.6,2.1
CN(C)CCN(Cc1cc2cc3c(cc2[nH]c1=O)OCO3)C(=S)NCc1ccco1,-2.2%,-5.2%[15.4 µM],6.2%,-1.0,.,2.7,-8.9
CN(C)CCCOC(=O)COc1ccc(C(C)(C)C)cc1,4.8%,-16.1%,4.5%,2.4,-1.5%,-13.2,7.8
CC(O)/C=C/C1OC(=O)CC1Nc1ccc(C=O)cc1 (stereo not given),-3.1%,.,12.7%,0.2,-5.0%,3.0,?
O=C(Nc1ccc(Oc2nnc(-c3ccccc3)c3ccccc23)cc1)c1ccccc1,?,-1.0%,-0.6%,3.4,-0.2%,-8.8,5.0
COc1ccc(NC(=O)COc2ccc(Br)cc2)c(OC)c1,0.2%,?,10.8%,-3.2,-0.3%,.,27.1
CC(CNC(=O)CN1C(=O)c2cccnc2Oc2ccc(Cl)cc21)c1ccccc1 (stereo not given),1.7%,29.4%,7.4%,-6.7,0.7%&2.3%,1.8,-5.8
c1ccc(N/N=C2\CCCc3ccccc32)nc1,2.1%,-10.7%[15.4 µM],-7.4%,-10.4,?,-3.1,-19.7
Cc1cccc(NC(=O)CSc2nnc(-c3ccccc3Br)o2)c1C,?,-24.9%,-6.0%,1.3,?,0.0,2.8
CC1(C)CC(=O)C(C(=O)C2CCN(S(=O)(=O)c3ccccc3)CC2)C(=O)C1,-3.6%,0.6%[15.4 µM],5.0%,3.6,.,1.8,4.8
CCCCC1(C)OC(=O)C(=Cc2ccc(-c3ccc(Cl)c(C(=O)O)c3)o2)C(=O)O1 (stereo not given),-10.0%,15.4%[15.4 µM],44.7µM*,19.6,.,1.9,-1.5
Cc1nc2c(c(=O)c3ccccc3n2C)c(=O)n1-c1ccccc1,2.6%,-3.2%[15.4 µM],13.2%,6.2,.,-27.1,3.0
COCCCNC(=O)C1CCN(c2ccc(N3CCOCC3)nn2)CC1,13.4%,23.5%,12.1%,1.8,3.4%,-0.3,-8.0
COCCCNC(=O)C[C@H]1C[C@H](C(=O)N2CCOCC2)[C@@]2(C)c3[nH]c4cc(-c5ccco5)ccc4c3CCN2C1=O,-3.4%,.,.,.,3.9%,2.4,.
N#Cc1ccccc1COC(=O)c1ccc(Br)o1,3.8%,11.4%,-17.3%,-0.8,.,2.3,-17.0
Brc1ccc(OCCCCN2CCCCC2)cc1,8.9%,1.0%,2.6%,1.5,0.3%,.,-5.8
Clc1cc(Cl)cc(CSc2nnc(-c3sccc3-n3cccc3)o2)c1,-9.8%,-23.8%,-8.2%,-1.1,-22.1%,2.4,6.0
CCOC(=O)CN1CC23C=CC(O2)C(C(=O)Nc2ccc(F)c(C)c2)C3C1=O (stereo not given),15.3%,-16.7%,11.9%,4.2,-1.4%,-0.9,0.7
CC/C(=C/c1sc2ccc(C)cc2[n+]1CCO)SC,-1.2%,27.4%,28.2µM*,10.1,.,-5.9,-2.7
CCCCc1nc(NCCNC(=O)c2ccco2)c(C#N)c2c1CSC(C)(C)C2,?,-46.0%[inhibitor],?,6.7,25.1µM*,?,-9.5

# The list continues.
SMILES,gsp antagonist,gsp ag,Sfp inh,Menin MLL FP FL,ClpP mod,CtBP-E1A blk,TRPV1 PAM
COc1ccccc1NC(=O)C12CCC(C)(C(=O)C1)C2(C)C (stereo not given),4.8%,1.9%,5.1%,0.7,-0.2%,5.7,-7.6
NC(=O)c1ccc(NC(=O)CCNC(=O)c2ccco2)cc1,6.8%,9.4%,12.7%,-8.2,-3.0%,-1.6,-4.7
c1ccc(-c2nc(NCCCn3ccnc3)c3oc4ccccc4c3n2)cc1,-23.2%,-25.1%,-9.6%,2.1,-4.4%,-68.1*,1.6
O=C(Cn1cccc1C(=O)c1ccccc1)NCCCc1ccccc1,-7.0%,?,11.3%,0.3,-2.0%,-10.3,-15.6
Cc1ccc(NC(=O)c2cc(NC(=O)c3ccco3)ccc2N2CCCCC2)cc1,3.6%,-2.0%,22.9%,3.5,?,0.8,13.5
Oc1ccc(/C=N/N=C/c2ccc(O)c(O)c2)cc1O,-3.8%,-10.2%,-16.3%,1.6,.,-7.9,6.6
CN(Cc1c(C(=O)N/N=C/c2cccc(O)c2)nnn1-c1nonc1N)C1CCCCC1,?,14.0%,9.8%,-2.8,-5.5%,.,-18.5
